# Source: PubChem BioAssay (Fisher Drug Discovery Resource Center)
# NPYLR7 ag: agonists of mosquito NPYLR7 receptor, primary screen, cell-based, Aedes aegypti, calcium fluorescence, mosquito biting behavior; activation, % at 10 µM; AID 1259423, 2018; 270,000 compounds, 0.15% hits; Aedes aegypti neuropeptide Y-like receptor 7 (NPYLR7); HEK293T NPYLR7/Galpha15, GCaMP6s calcium fluorescence; in the data active means activation above about 40%;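 further: 0% = vehicle and 100% = reference agonist at the receptor; some compounds past the cut are filed as inactive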
# NPYLR7 ag max-min: further read-out of NPYLR7 ag, marked with its call; activation, %; measured here: Max-Min RFU normalised activation; some inactives read as strong as hits;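 span of the calcium signal over five minutes; 0% = vehicle and 100% = native peptide agonist; compound fluorescence can raise it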
# * = called active by the depositor; & = joins results of further samples. Only part of the results is shown (hit frequency here may not be typical).
SMILES,NPYLR7 ag,NPYLR7 ag max-min
Cc1ccccc1C1SCC(=O)N1CC(C)O (stereo not drawn),-1,-4
CCC(Sc1nc2c(cnn2CCO)c(=O)[nH]1)C(=O)O (stereo not drawn),4,0
CC1c2cccn2CCN1C(=O)CNC(=O)c1ccccn1 (stereo not drawn),-6,-7
C[N+]1=C(CC=Nc2ccccc2)SCC1,-1,-1
CN(CCCC(=O)O)C(=O)c1cc(Cl)ccc1Cl,8,2
Cc1ccc(-n2ncc(C(=O)NCc3ccco3)c2C(C)C)cc1,0,3
CCn1ncc(C(=O)N(C)Cc2cc3cc(F)ccc3[nH]2)c1C,5,-1
CC1=C(C(=O)N2CCN(C(=O)c3ccco3)CC2)C2(CCC(C)CC2)OC1=O (stereo not drawn),2,2
CC(C)Oc1ccc(CN2CCn3cncc3C2)cc1CO,25,15
CCOc1ccccc1-c1nc(Cn2ccn3nc(-c4ccc(C)cc4)cc3c2=O)c(C)o1,-1,-6
CCOc1cc(Nc2ccc(NC(=O)Nc3ccc(F)c(Cl)c3)cc2)nc(C)n1,9,1
CCOC(=O)C(c1cc(C)cc(C)c1)C1C=CC(NC(=O)c2ccc(OC(F)(F)F)cc2)C1 (stereo not drawn),3,-4
O=C1NC(Cc2ccc(F)cc2)(C2CCNCC2)C(=O)N1CCc1ccncc1 (stereo not drawn),11,9
CCOc1ccc(CCC(=O)NC(C)(C)C(C)(C)C(=O)OC)cc1,3,0
CC(C)C1CCCCC1NC(=O)N(C)Cc1nnc(C2CC2)n1C (stereo not drawn),6,5
Cc1cc(C)n(C(C[N+](=O)[O-])c2ccc(Br)cc2)n1 (stereo not drawn),1,-2
O=C(c1cc(COc2ccc3c(c2)CCCC3)on1)N1CCCC1c1nccs1 (stereo not drawn),3&14,-1&3
O=c1c2cnc3ncnn3c2ccn1C1CCCCCC1,-1,3
CCc1nc2n(n1)C(=O)C(C(c1ccc(Cl)cc1Cl)N1CCC(O)CC1)S2 (stereo not drawn),-1,-9
CC1=C(C(=O)OCc2ccccc2)C(c2ccsc2)NC(=O)N1C (stereo not drawn),-8,-14
Cc1cc([N+](=O)[O-])nn1CC(=O)NCc1ccc(Cl)cc1,-3,-6
CCN1CCN(C(=O)c2cnn(-c3cccc(F)c3)c2-c2ccccc2)CC1,13,21
O=C(NNC(=O)c1cccn(Cc2ccc(F)cc2)c1=O)c1ccco1,-16,-21
COc1ccc(-c2nc3ccc(C)cn3c2NC(=O)C(C)C)cc1,2,6
CC(=O)N[C@H]1C[C@@H](C(c2ccccc2)c2ccccc2)O[C@@H](C(C)C)C1,2,-1
Cc1cc(S(N)(=O)=O)cc(C)c1C,2,0
CCNC(=O)[C@H]1CC[C@@](C)(C(=O)NCCC(=O)O)C1(C)C,6,4
C=CCOc1ccccc1CN1CCC(C(=O)Nc2cccc(-c3ccn[nH]3)c2)CC1,12,7
O=S1(=O)N=C(OCc2ccccc2)c2ccccc21,-7,-5
Cc1ccc(C(=O)OCC(=O)NC(C)c2ccc3c(c2)CCCC3)cc1O (stereo not drawn),16,5
CCOC(=O)CNC(=O)CSc1nnc(C(C)C)c2cnn(-c3ccc(C)c(C)c3)c12,-12,-17
Cc1c(C(=O)N(C)Cc2ccc(F)cc2)sc(=O)n1CC(=O)c1ccc(Cl)cc1,4,1
Cc1cc(C)c(S(=O)(=O)N2CCCCC2CCNC(=O)C(=O)Nc2ccccc2)c(C)c1 (stereo not drawn),10,3
C=CCNC(=O)c1cc2c(=O)n3ccccc3nc2s1,12&15,8&9
O=C(NCc1ccco1)c1ccc(-c2ccc(Oc3ccccc3)cc2)s1,12,26
COc1ccccc1C(=O)C1CCCN(Cc2coc3ccccc3c2=O)C1 (stereo not drawn),-22,-21
CCC(CC)C(=O)NCCN1CCn2cc(OCc3ccccc3)c(=O)cc2C1=O,11,2
CC1CC(OCC(S)CN2CCN(c3ccccc3)CC2)CC(C)(C)C1 (stereo not drawn),3,2
CNC(=O)[C@@H]1[C@@H](OC(=O)Nc2ccccc2)C(=O)N(C)C12CCN(C(=O)c1ccc(OC)cc1)CC2,28,34
COc1cccc(NC(=O)Cn2c(C)cc(C)c(C#N)c2=O)c1,-9,-8
CCOC(=O)C1CCCN(c2c(N3CC(C)CC(C)C3)c(=O)c2=O)C1 (stereo not drawn),5,3
C=CCn1c(Cl)c(/C=N\NC(=O)c2ccncc2)sc1=O,6,5
CC1(C)N=C(N)N=C(N)N1c1ccc(F)cc1,12,5
Cc1nc2c(C)cccn2c(=O)c1NC(=O)c1cc(Br)ccc1Cl,1,1
CCc1c(C(=O)N2CCCCC2)cnn1-c1ccccc1Cl,26,21
CC(c1nc2ccccc2c(=O)n1-c1ccc(Br)cc1)N(Cc1ccco1)C(=O)c1ccccc1Cl (stereo not drawn),16,19
CCOc1cccc2cc(C(N)=O)c(=Nc3ccc(Br)cc3)oc12,-3,-4
COc1ccc(C2=NC(=Cc3ccc(C(F)(F)F)cc3)C(=O)O2)cc1OC,0,-5
CCc1[nH]n(C)c(=O)c1C1=C(N(C)Cc2ccccc2)C(=O)N(c2ccc(F)cc2)C1=O,10,16
Nc1nnnn1/N=C\c1ccc(OCc2ccc(Cl)cc2)cc1,-6,-10
COc1ccc(-c2[nH]nc3c2C(c2ccc(C)o2)C(C#N)C(=N)O3)cc1 (stereo not drawn),-5,-13
CCCN(CC(=O)N(CCOC)Cc1cccn1C)C(=O)Nc1ccc(C)c(Cl)c1,6,4
Cc1cnccc1N1CCN(C(=O)c2cc3n(n2)CCN(C)C3)CC1,-1,0
CCC(Sc1nnc(C)c2cnn(-c3ccc(C)c(C)c3)c12)C(=O)OC (stereo not drawn),-10,-13
Cc1c(C)n2c3c(=O)n(CC(C)C)c(=O)n(C)c3nc2n1C1CCCCC1,-2,0
Nc1c(C=C2C=C([N+](=O)[O-])C=C(Br)C2=O)c(=O)nc2sc(-c3ccccc3)nn12,0,-2
CC(C(=O)N(C)c1ccnn1C)c1ccc(Cl)s1 (stereo not drawn),5,3
CCc1nc2ccc(C(=O)NCCCn3ccnc3)cn2c1N(CC)C(C)=O,-5,-12
CCOC(CNC(=O)c1cn(CC)cc2c(=O)n(-c3ccccc3)nc1-2)OCC,7,6
O=C(NCC1Cc2cc(F)cc(F)c2O1)c1cccs1 (stereo not drawn),13,20
# (more compounds)
SMILES,NPYLR7 ag,NPYLR7 ag max-min
CN(C)c1c(N)c(=O)oc2ccccc12,-2,-2
COc1ccc(NC(=O)Cn2ncn3nc(-c4ccc(C)cc4)cc3c2=O)cc1,-8,-13
COC(=O)C1=C(C)NC2=C(C(=O)CC(c3ccccc3)C2)C1c1ccccc1I (stereo not drawn),-6,-8
COc1ccc(C(C)Sc2nncn2C)cc1Cl (stereo not drawn),8,7
CC(C)NCc1ccc(N2CCCC2C)nc1 (stereo not drawn),-2,-4
COc1cc(OC)cc(C(=O)N2CCN(c3cc(S(=O)(=O)N4CCc5ccccc5C4)ccc3OC)CC2)c1,22,20
Cc1c(C(=O)NCc2ccc(C(C)C)cc2)sc(=O)n1Cc1ccc(S(C)(=O)=O)cc1,16,11
CCOC(=O)Cn1c(C)c(C)n2c3c(=O)n(CCC(C)C)c(=O)n(C)c3nc12,10,17
CC(=O)Oc1ccc(Cn2c(C)c(C(=O)NCC3CC3)sc2=O)cc1,-3,-3
COc1cc(F)c(CSc2nc3cc(S(=O)(=O)N4CCOCC4)ccc3n2CCCN2CCOCC2)cc1OC,3,-1
COCC(=O)NC1CCC(Nc2nc(C3CC3)nc3c2cnn3-c2ccccc2)CC1 (stereo not drawn),6,4
CN(Cc1n[nH]c(=O)n1Cc1cccs1)S(C)(=O)=O,4,6
O=S(=O)(NCc1ccccc1)NC(Cn1cccn1)c1ccccc1 (stereo not drawn),-1,-2
O=C(c1ccc(S(=O)(=O)N2CCCCC2)cc1)n1nnc2ccccc21,-6,-13
CCOc1ccc(C(=O)CCC(=O)n2nc(N)nc2C)cc1,7,7
CCOc1c(CC)cnc2c1c(=O)n(CC(=O)N1CCCCC1)c(=O)n2C,-4,-6
Cc1cccc2sc(N(CCCN3CCOCC3)C(=O)COc3ccccc3)nc12,-1,-5
Cc1ccc(C)c(-c2ccc(=O)n(CC(N)=O)n2)c1,12,5
COCCN(Cc1csc(COc2ccc(Cl)cc2)n1)C(=O)Cc1ccccc1,-10,-3
Cc1ccc(Cl)c2sc(N(CCN(C)C)C(=O)CS(=O)(=O)c3ccc(Cl)cc3)nc12,-2,-7
CCC(=O)Nc1cccc(C(=O)N2CCC(Oc3ncccn3)CC2)c1,-1,-4
Cc1cccc(-c2nc(C)c(C)c(N3CCN(C(=O)Nc4c(C(C)C)cccc4C(C)C)CC3)n2)c1,-5,1
Cc1cccc(C(=O)N(Cc2cc(NC(=O)C3CCC3)ccc2N(C)C)CC2CCCO2)c1 (stereo not drawn),4,7
O=C(Nc1cccc(-c2nnco2)c1)C1CCCCC1,86*,85*
CSc1ccccc1C(=O)N1CCC(n2c(Cc3ccccc3)nc3ccccc32)CC1,-10,-13
CC(C)N1C(=O)C(NC(=O)C2CC2)(C(F)(F)F)N=C1c1ccccc1 (stereo not drawn),-12,-16
Cc1cc2c(c(=O)[nH]1)C(=O)O/C2=C\c1c(C)[nH]c(C#N)c1C,5,4
CCC1=NOC(CNCc2nc(-c3ccco3)no2)C1 (stereo not drawn),9,7
CS(=O)c1ccc(NC(=O)C2CCOc3ccccc32)cc1 (stereo not drawn),-3,-4
O=C(C1=C(O)C(=O)N(c2ncccn2)C1c1cccc(Br)c1)c1ccco1 (stereo not drawn),2,3
CC(=O)OC(C(=O)N1CCC(n2c(=O)oc3ccc(F)cc32)CC1)c1ccccc1 (stereo not drawn),1,-2
Cc1ccccc1C(=O)Nc1cc(-c2ccco2)nn1-c1nc(C)c(C)c(=O)[nH]1,2,0
Cc1c(NC(=O)C2(c3ccccc3)CCCC2)c(O)c(-c2ccccc2)n1C,-1,-7
CCNC(=O)N1CC2=CC(C)(C)COc3ccc(OC)c(c32)C1C(=O)OCC (stereo not drawn),8,12
O=C(O)C1COC2(CCCCC2)N1C(=O)c1ccccc1F (stereo not drawn),16,14
Cc1ccc(NC(=O)Cn2nc(-c3ccc(Br)cc3)ccc2=O)cc1,7,-1
N#Cc1c(C(F)(F)F)cc(=O)n2c1[nH]c1ccccc12,-3,-6
Cn1c(=O)n(CCN2CCOCC2)c(=O)c2c1nc1oc(C(C)(C)C)cn12,3,7
CN(CCN1CCCCC1=O)c1nc(-c2cccnc2)nc2c1CNC2,1,1
COc1ccc(-c2nc(COC(=O)c3nnn(-c4cccc(SC)c4)c3C)c(C)o2)cc1,15,6
Cc1ccc(CN(CCc2c[nH]c3ccccc23)C(=O)CN(C(=O)c2cccc(C(F)(F)F)c2)C(C)C)cc1,1,8
Cc1cccnc1NC(=O)CCNS(=O)(=O)c1c(C)c(C)cc(C)c1C,2,1
CC(C)COC(=NCCN1CCCCC1)NC(=O)c1ccc(Cl)c(Cl)c1,-7,2
CCN(CC)CC(O)COc1ccc(CNC(C)(C)C)cc1OC (stereo not drawn),8,3
Cc1nc(C(C)(C)NC(=O)CCc2ccco2)sc1C,7,5
CCNS(=O)(=O)c1ccc(C)c(C(=O)Nc2ccn(C)n2)c1,4,3
C/C(=C\c1ccco1)CN1CCC2(CC1)C(=O)N(Cc1ccccn1)C(=O)N2CC(C)C,4,-2
Cc1cc(NC(C)C)n2nc(C(F)(F)F)c(-c3ccccc3Cl)c2n1,3,3

# Reformatted: 18 of the compounds above
# Results follow in this order: NPYLR7 ag, NPYLR7 ag max-min
- CC(=O)OC(C(=O)N1CCC(n2c(=O)oc3ccc(F)cc32)CC1)c1ccccc1 (stereo not drawn)
  1, -2
- Cc1ccccc1C(=O)Nc1cc(-c2ccco2)nn1-c1nc(C)c(C)c(=O)[nH]1
  2, 0
- Cc1c(NC(=O)C2(c3ccccc3)CCCC2)c(O)c(-c2ccccc2)n1C
  -1, -7
- CCNC(=O)N1CC2=CC(C)(C)COc3ccc(OC)c(c32)C1C(=O)OCC (stereo not drawn)
  8, 12
- O=C(O)C1COC2(CCCCC2)N1C(=O)c1ccccc1F (stereo not drawn)
  16, 14
- Cc1ccc(NC(=O)Cn2nc(-c3ccc(Br)cc3)ccc2=O)cc1
  7, -1
- N#Cc1c(C(F)(F)F)cc(=O)n2c1[nH]c1ccccc12
  -3, -6
- Cn1c(=O)n(CCN2CCOCC2)c(=O)c2c1nc1oc(C(C)(C)C)cn12
  3, 7
- CN(CCN1CCCCC1=O)c1nc(-c2cccnc2)nc2c1CNC2
  1, 1
- COc1ccc(-c2nc(COC(=O)c3nnn(-c4cccc(SC)c4)c3C)c(C)o2)cc1
  15, 6
- Cc1ccc(CN(CCc2c[nH]c3ccccc23)C(=O)CN(C(=O)c2cccc(C(F)(F)F)c2)C(C)C)cc1
  1, 8
- Cc1cccnc1NC(=O)CCNS(=O)(=O)c1c(C)c(C)cc(C)c1C
  2, 1
- CC(C)COC(=NCCN1CCCCC1)NC(=O)c1ccc(Cl)c(Cl)c1
  -7, 2
- CCN(CC)CC(O)COc1ccc(CNC(C)(C)C)cc1OC (stereo not drawn)
  8, 3
- Cc1nc(C(C)(C)NC(=O)CCc2ccco2)sc1C
  7, 5
- CCNS(=O)(=O)c1ccc(C)c(C(=O)Nc2ccn(C)n2)c1
  4, 3
- C/C(=C\c1ccco1)CN1CCC2(CC1)C(=O)N(Cc1ccccn1)C(=O)N2CC(C)C
  4, -2
- Cc1cc(NC(C)C)n2nc(C(F)(F)F)c(-c3ccccc3Cl)c2n1
  3, 3
